# Screening results from PubChem.
# VDR inh: inhibitors of human vitamin D receptor. P11473. VDR-SRC2-3 peptide fluorescence polarization, 2 h. Potency, µM, for the others: max response, negative = inhibition, actives largely listed as inhibitors. actives 0.93% (n = 400,000); active = well fitted inhibition curve with a large enough effect; inconclusive = small, poorly fitted or top-dose-only effect, or another doubt; inactive = no such curve, though single readings can be large or run the other way; also: series mostly up to about 120 µM
# Target sequence (P11473 whole entry, looked up): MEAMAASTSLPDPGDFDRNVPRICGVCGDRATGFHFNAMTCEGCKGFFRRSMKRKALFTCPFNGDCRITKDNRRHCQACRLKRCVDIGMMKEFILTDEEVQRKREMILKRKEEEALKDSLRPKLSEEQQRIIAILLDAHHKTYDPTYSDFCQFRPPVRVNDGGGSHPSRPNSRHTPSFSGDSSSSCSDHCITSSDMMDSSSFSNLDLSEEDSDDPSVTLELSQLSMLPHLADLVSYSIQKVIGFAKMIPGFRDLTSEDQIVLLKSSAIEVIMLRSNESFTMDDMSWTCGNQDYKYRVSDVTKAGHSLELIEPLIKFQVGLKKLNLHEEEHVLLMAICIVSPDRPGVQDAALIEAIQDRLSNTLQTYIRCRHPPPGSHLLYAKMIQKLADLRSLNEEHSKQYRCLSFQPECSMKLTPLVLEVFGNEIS
#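 Two reagent solutions held at 4 deg C in the dark were dispensed, compounds pinned at 23 nl, and the mixture incubated 2 h at room temperature. Read-out: fluorescence polarization of VDR–SRC2-3 peptide binding.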
# Numbers without * were called inactive; ? = inconclusive; & = joins results of further samples. % is scaled to controls: 0 for no effect and ±100 for the full control effect; potency is read from the fitted curve at half-maximal effect. Not all compounds are listed. The share of hits here may be higher or lower than overall.
VDR inh,molecule
-4%,O=C(O)CCC(=O)N1CCc2cc(S(=O)(=O)N3CCC(Cc4ccccc4)CC3)ccc21
-15%,CCc1ccc(NC(=O)c2noc3c2CCc2ccccc2-3)cc1
0%,COC(=O)c1cc(NS(=O)(=O)c2cc(Br)cc3c2N(C(C)=O)CC3)cc(C(=O)OC)c1
-1%,CCCCSc1nc(C)cc(SCC(=O)N/N=C/c2cccc(OC)c2O)n1
13%,COC(=O)N/N=C1/C/C(=N\NC(=O)OC)c2ccccc21
-2%,C=C(C)CNC(=S)Nc1ccc(S(=O)(=O)Nc2cnc3ccccc3n2)cc1
-1%,O=C(/C=C/c1ccccc1)Oc1cccc2cccnc12
-4%,CCN(CC(=O)NC(C)(C)C)C(=O)CCl
12%,Cc1cccc(NC2=Nc3ccccc3N3C2=Nc2c(c(C)nn2-c2ccccc2)C3c2ccc(O)c(O)c2)c1 (centres undefined)
3%,Nc1nnnn1/N=C/c1ccco1
2%,O=C(Nc1ccncc1)c1ccc2c(c1)C(=O)N(CC1CCCO1)C2=O (centres undefined)
4%,COc1ccc(/C=N/Nc2nc(-c3ccc(C)cc3)c(NC(C)=O)s2)cc1OC
20%&-6%,Cc1ccc(C2=NN(CC(=O)NCCC(C)C)C(=O)CC2)cc1
-19%,COc1cc(/C=C/C(=O)OCC(=O)NCc2ccco2)ccc1OCC#N
-24%,CCN(CCO)Cc1csc2cccc(Br)c12
-9%,Cc1ccc(NC(=O)CSc2nnc(CCCCCNC(=O)OC(C)(C)C)o2)c(C)c1
0%,COc1ccc(C(=O)c2c(-c3cccc(C)c3)oc3ccc(N4CCOCC4)cc23)cn1
-6%,O=C(CSc1cn(CC(=O)N2CCCC2)c2ccccc12)NCC1CCCO1 (centres undefined)
7%,O=C(NC(=S)Nc1ccccc1N1CCOCC1)c1sc2ccccc2c1Cl
15%,COc1ccccc1NC(=O)COc1ccc(/C=N/NS(=O)(=O)c2ccc(C)cc2)cc1
-10%,CN(C(=O)Cn1nnc(-c2ccc(S(C)(=O)=O)cc2)n1)c1ccccc1
-5%,CCN(C(=O)c1cc2cccc(OC)c2oc1=O)C1CCCCC1
-23%,COc1ccccc1OCC(=O)NCCSCc1ccc(Cl)cc1
-2%,O=C1CN(CC(=O)N2CCCCC2)c2ccccc2O1
3%,O=C(Nc1ccc(N2CCN(Cc3ccccc3)CC2)cc1)c1ccccc1[N+](=O)[O-]
3%,Clc1nc2sccn2c1/C=N/n1cnc2ccccc21
17%,CCN(CC)S(=O)(=O)c1ccc(NC(=O)C(C)N(c2ccc(OC)cc2)S(C)(=O)=O)cc1 (centres undefined)
-3%,CCOc1cc(C2NC(=S)NC(C)=C2C(=O)Nc2ccc(OC)cc2)ccc1O (centres undefined)
?,CC1CC=CC2C1C(=O)N(Cc1ccccc1)C2c1ccc(F)c(Br)c1 (centres undefined)
-15%,COc1cccc(CN2CCCC(C(=O)c3ccc4c(c3)OCO4)C2)c1O (centres undefined)
-2%,CN(C)C(=O)C[n+]1ccc(/C=N/O)cc1
5%,CC1CN(C(=O)/C=C/c2ccc3c(c2)OCO3)CC(C)O1 (centres undefined)
-7%,NC(CCC(=O)NC(CS)C(=O)NCC(=O)O)C(=O)O (centres undefined)
10%,Cc1ccc(NC(=O)C2CCCN(S(=O)(=O)c3ccc(-n4cnnn4)cc3)C2)cc1 (centres undefined)
13%,CCc1ccc(NC(=O)CSc2nc(=O)n(Cc3ccco3)c3c2CCC3)cc1
-14%,O=C(Nc1ccc(N2CCOCC2)cc1)C1CCCCN1S(=O)(=O)c1ccccc1 (centres undefined)
4%,Cc1cccc(-n2c(=O)[nH]c3c(C(N)=O)nc(C(C)C)nc32)c1
0%,O=C1CCCC2=C1C(c1cccc(O)c1)c1c(ccc3ncccc13)N2 (centres undefined)
6%,COC(=O)C1=C(C)N(CCc2ccccc2)C(=O)C1
8%,CCC1(CC)NC(=O)N(CC(=O)OCC(=O)NC(=O)c2ccc(Cl)cc2)C1=O
-10%,CCOc1ccc(S(=O)(=O)N2CCCC(C(=O)NCc3ccccn3)C2)cc1C (centres undefined)
-9%,O=C(O)c1cc2c(cc1NC(=O)c1ccccc1C(F)(F)F)OCCCO2
0%,CC1(C)CC(O)CC(C)(C)N1CC(O)COCCOc1ccc(Br)cc1 (centres undefined)
-24%,CCOC(=O)C1CCN(C(C(=O)NC2CCCCC2)c2ccc(OC)cc2)CC1 (centres undefined)
-8%&0%,COc1cccc(-c2cc(C(=O)Nc3ccn(Cc4ccc(C)cc4)n3)no2)c1
-2%,O=C(NC(=S)Nc1ccc2c(c1)OCO2)c1ccccc1
8%,CC(SCc1ccccc1)C(=O)Nc1ccccc1-c1ccccc1 (centres undefined)
9%,CSc1ccc(CCNC(=O)CCCn2nc(C)c3sc4ccccc4c3c2=O)cc1

# In the list so far, 2 have a tert-butyl group.
VDR inh,molecule
-4%,CCN(CC(=O)NC(C)(C)C)C(=O)CCl
-9%,Cc1ccc(NC(=O)CSc2nnc(CCCCCNC(=O)OC(C)(C)C)o2)c(C)c1

# Next results
VDR inh,molecule
-15%,CC1=C(C(=O)OC2CCCCC2)C(c2ccc(O)cc2)NC(=O)N1 (centres undefined)
-7%,Cc1cccc(NC2=NCC(=O)N2CCc2ccccc2)c1
-7%,COC(=O)CSc1nnc(-c2ccncc2)o1
-7%,COc1ccc2nc(SCC(=O)NCc3ccc(S(N)(=O)=O)cc3)[nH]c2c1
-10%,Cc1ccc(NC(=O)c2ccc(=O)[nH]c2)cc1S(=O)(=O)N1CCCCC1
5%,CCN1C(=O)Nc2cccc3cccc1c23
-3%,Cc1ccccc1-c1ccc(=O)n(CC(=O)Nc2ccc(-n3cnnn3)cc2)n1
6%,O=C(Nc1ccc2c(c1)OCCO2)c1c[nH]c(=O)n(-c2ccc(F)c(Cl)c2)c1=O
6%,CC1CCC(NC(=O)CN2CCCN(Cc3ccc(F)cc3Cl)C2=O)CC1 (centres undefined)
12%,CCCCNc1ccccc1C(=O)OCC(=O)Nc1ccc(S(N)(=O)=O)cc1
2%,Cc1nc([N+](=O)[O-])cn1CC(O)c1ccc(F)cc1 (centres undefined)
17%,CC(=O)Nn1c(C)nnc1-n1nc(C)cc1C
-3%,COc1ccc(CCNC(=O)CCn2c(=O)oc3ccccc32)cc1
-9%,O=C(NCCc1ccc(Cl)cc1)c1ccc(CS(=O)(=O)Cc2ccc(Cl)cc2)o1
-20%,COc1ccc(-c2sc3ccc(OC)cc3c2C#Cc2ccccn2)cc1
-13%,O=C(NCCCc1nc2ccccc2[nH]1)c1ccc(F)cc1
-20%,COc1ccccc1NS(=O)(=O)c1cc(NC(=O)CNC(=O)c2ccc(C)s2)ccc1Cl
10%,COc1cc(OC)nc(Oc2ccccc2C=O)n1
-8%,Cc1cccc(-c2[nH]c(C(C)(C)C)nc2-c2ccc3c(c2)OCO3)n1
-3%,CCC(NC(=O)c1cncc(Br)c1)c1ccccc1 (centres undefined)
-8%,CC(C)Oc1ccc(CCNC(=O)CC2C(=O)NCCN2C)cc1 (centres undefined)
-2%,Cc1cc(C(=O)OCC(=O)N(C)c2ccccc2)c(C)o1
9%,COc1ccc(C)cc1NC(=O)CN(C)S(=O)(=O)c1ccc2c(c1)CC(C)N2C(C)=O (centres undefined)
-21%,COc1cccc(N/C=C/C(=O)c2ccc(Cl)cc2)c1

# Rewritten with bars between the fields: 3 of the compounds above.
Molecule | VDR inh
O=C(NCCCc1nc2ccccc2[nH]1)c1ccc(F)cc1 | -13%
COc1ccccc1NS(=O)(=O)c1cc(NC(=O)CNC(=O)c2ccc(C)s2)ccc1Cl | -20%
COc1cc(OC)nc(Oc2ccccc2C=O)n1 | 10%

# Further structures
VDR inh,molecule
-18%,N#Cc1ccccc1N1CCN(C(=O)c2ccc(NC(=O)c3ccc(Br)o3)cc2)CC1
-20%,Cc1c(Br)c([N+](=O)[O-])nn1CC(=O)Nc1sc2c(c1C(=O)OC(C)C)CCCC2
3%,Cc1ncc(COC(=O)C(C)C)c2cc(C(=O)Nc3ccccc3C(F)(F)F)c(=O)oc12
-8%,Cn1cnc([N+](=O)[O-])c1NC(C)(C)C
5%,COC(=O)c1cc2c(cc1NC(=O)c1cnn(-c3ccc(C)cc3)c1-n1cccc1)OCO2
2%,COc1cc2ccccc2cc1C(=O)NC1CCCCC1
2%,CCSc1nnc(-c2ccc(Cl)cc2Cl)o1
-4%,CCN1C(=O)CCCc2ccccc21
5%,C[C@H]1CN([C@@H](C)CO)C(=O)c2cccc(NC(=O)C3CC3)c2O[C@H]1CN(C)C(=O)Nc1ccc2c(c1)OCO2
-13%,Cc1cc(C)cc(C(=O)N(Cc2ccco2)c2c(N)n(Cc3ccccc3)c(=O)[nH]c2=O)c1
-4%,CCOC(=O)N1CCN(C(=O)c2cc3c(ccc4ccccc43)oc2=O)CC1
3%,COC(=O)[C@@]1(Cc2ccc(F)cc2)[C@H]2c3cc(C(=O)N(C)C)n(Cc4nc5ccccc5[nH]4)c3C[C@H]2CN1C(=O)c1ccccc1

# At a glance, part of the list above:
VDR inh,molecule
5%,C[C@H]1CN([C@@H](C)CO)C(=O)c2cccc(NC(=O)C3CC3)c2O[C@H]1CN(C)C(=O)Nc1ccc2c(c1)OCO2
-13%,Cc1cc(C)cc(C(=O)N(Cc2ccco2)c2c(N)n(Cc3ccccc3)c(=O)[nH]c2=O)c1
-4%,CCOC(=O)N1CCN(C(=O)c2cc3c(ccc4ccccc43)oc2=O)CC1
3%,COC(=O)[C@@]1(Cc2ccc(F)cc2)[C@H]2c3cc(C(=O)N(C)C)n(Cc4nc5ccccc5[nH]4)c3C[C@H]2CN1C(=O)c1ccccc1

# The list goes on.
VDR inh,molecule
4%,COc1ccc(NCc2cccnc2)cc1
-11%,COc1ccc(-c2cc(C(=O)N3CCCCCC3)c3ccccc3n2)c(OC)c1
5%,CC(=O)NC(Cc1cccc(F)c1)C(=O)NC1CCN(c2nnnn2-c2ccccc2)CC1 (centres undefined)
-7%,CCCCCCOc1ccccc1C(N)=O
10%,COc1ccccc1NS(=O)(=O)c1ccc(C(=O)N2CCCC(C)C2)cc1 (centres undefined)
17%,COc1ccc(N2CCN(Cc3nnc(-c4ccccc4)o3)CC2)cc1
-18%,COC(=O)c1sc(-c2ccc(C(C)(C)C)cc2)cc1NC(=O)CCC(=O)O
-9%,CCn1c(=S)sc2c(=O)n(CC(=O)Nc3ccccc3)c(C)nc21
11%,CCOC(=O)c1[nH]c(C)c(CCC(=O)N2CCN(c3cc(C)ccc3C)CC2)c1C
?,O=c1c(Cl)c(Cl)cnn1Cc1ccccc1Cl
-3%,CSc1cccc(NC(=O)N2CCN(c3cc(-c4noc(C)n4)ccc3C)CC2)c1
-12%,COc1ccc2cc(-c3[nH]ncc3CN3CCCC3c3nonc3C)ccc2c1 (centres undefined)

# Some of the entries above, reformatted.
SMILES,VDR inh
CCN(CCO)Cc1csc2cccc(Br)c12,-24%
CCCCNc1ccccc1C(=O)OCC(=O)Nc1ccc(S(N)(=O)=O)cc1,12%
O=C(CSc1cn(CC(=O)N2CCCC2)c2ccccc12)NCC1CCCO1 (centres undefined),-6%

# (further entries)
VDR inh,molecule
7%,CN(C(=O)COC(=O)c1n[nH]c2ccccc12)C1CCS(=O)(=O)C1 (centres undefined)
-5%,O=C(/C=C/c1cc(Br)ccc1F)Nc1cccnc1
2%&-8%,CCCCC/C=C\CC1OC1CCCCCCCC(=O)O (centres undefined)
7%,COCCn1c(=O)c2c(nc3n2CCCN3Cc2ccccc2)n(C)c1=O
?,CC(C)CC1C(C#N)=C(N)SC(N)=C1C#N
6%,O=C(c1ccc(C(F)(F)F)cc1)c1c[nH]c(C(=O)NCCCn2ccnc2)c1
-3%,Cc1ccc2[nH]c(=O)c3cc(C(=O)NCCC(C)C)sc3c2c1
-7%,O=C(N/N=C/C=C/c1ccccc1)c1ccccn1
-7%,O=C(COc1ccc(F)cc1)NCCc1nc2ccccc2[nH]1
-8%,Cc1nn(C)c(C)c1C(=O)NN
?,CC(=O)N1CCc2c(sc(NC(=O)c3ccc([N+](=O)[O-])o3)c2C#N)C1
-14%,O=C(NC(=S)Nc1ccc(CN2CCOCC2)cc1)c1ccc([N+](=O)[O-])cc1Cl
-8%,CN1CCN(CCCNC(=O)c2cnn(-c3ccccc3)c2-n2cccc2)CC1
-29%,O=[N+]([O-])c1cc(S(=O)(=O)Oc2ccccc2)ccc1Cl
-9%,O=C(Nc1cc(-c2nc3ncccc3o2)ccc1Cl)c1cccs1
16%,O=C(Cc1ccc(F)cc1)N[C@@H]1c2ccccc2CC[C@@H]1O
-16%,CC/C(=N\NC(=S)NC(C)C)c1ccc(OC)c(OC)c1
-3%,CSc1n[nH]c2nc3c(c(=O)n12)C1(CCCC1)Cc1ccccc1-3
-7%,Cc1ccc(C2(CC(=O)N3CCCC3)CCOC(C(C)C)C2)cc1 (centres undefined)
1%,C#CC[N+]1(CC#Cc2ccccc2)CCCCC1
-7%,COc1cc(C(=O)N2CCC3(CC2)NCCc2[nH]cnc23)cc(OC)c1OC
-12%,Cc1ccc(S(=O)(=O)c2c(C)nn(-c3ccccc3)c2OC(=O)c2ccccc2F)cc1
12%&-11%,NC(=O)c1[nH]cnc1N
-28%,COCc1c(C(=O)OCC(=O)N(C)C2CCS(=O)(=O)C2)oc2ccccc12 (centres undefined)
-19%,CC(=O)c1cn(N2CCCCC2)c(=O)[nH]c1=O
-3%,CCOc1ccc(-c2nnc3ccc(SCC(=O)NCc4ccco4)nn23)cc1
-14%,O=C(O)c1ccc(OCCOc2ccccc2)cc1
7%,O=C(NCCCCCCNC(=O)C1CCCC1)C1CCCC1
7%,CCC(C)(NC(=O)c1ccc2c(c1)OCO2)C(=O)NC1CCCCC1 (centres undefined)
-4%,S=c1[nH]nc(CSCc2ccc(Cl)cc2Cl)n1-c1ccccc1
-2%,O=C(c1cc2cc(Br)ccc2s1)N1CCOCC1
-3%,Cc1ccc(NC(=O)COC(=O)c2cc(Cl)ccc2[N+](=O)[O-])c(C)c1
4%,CCn1nc(C)c(NC(=O)Nc2cccc(Cl)c2Cl)c1C
-17%,Cc1cccc(C(C)C)c1NC(=O)COC(=O)c1cccc(S(=O)(=O)N2CCc3ccccc3C2)c1
